High-throughput results from PubChem BioAssay.
MT1-MMP promoter: inhibitors of MT1-MMP promoter transcription, cell-based, luciferase reporter, luminescence (AID 618); calls from a first round at 10 µM; hits with a dose series show EC50 in µM; hit rate 0.62% among 87,000; MT1-MMP promoter luciferase reporter cells, luminescence;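 active = over half of the reporter light lost at 10 µM or EC50 under 50 µM; inactive = the rest and hits that failed the dose series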;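 note: actives suppress MT1-MMP promoter-driven transcription so potencies describe inhibitors; HT1080 fibrosarcoma cells; overnight exposure; toxic or luciferase-blocking compounds were not removed from the actives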
WNV protease inh: blocks West Nile virus NS2B-NS3 protease activity; P06935; WNV NS2B-NS3 protease, fluorogenic substrate Ex360/Em465; stronger effect = lower value; z-score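 (tested at a level between 10 and 100 µM)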; hit rate 0.18% among 65,000; AID 577;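 active = z-score at -3 or under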;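 note: score is relative to mean and spread of the compound wells of a plate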
Target sequence (P06935 1371-1501 limits assumed): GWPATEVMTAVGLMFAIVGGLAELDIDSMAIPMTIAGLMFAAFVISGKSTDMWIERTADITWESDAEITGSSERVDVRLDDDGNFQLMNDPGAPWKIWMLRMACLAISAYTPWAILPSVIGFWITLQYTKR
Target sequence (P06935 1502-1679 limits assumed): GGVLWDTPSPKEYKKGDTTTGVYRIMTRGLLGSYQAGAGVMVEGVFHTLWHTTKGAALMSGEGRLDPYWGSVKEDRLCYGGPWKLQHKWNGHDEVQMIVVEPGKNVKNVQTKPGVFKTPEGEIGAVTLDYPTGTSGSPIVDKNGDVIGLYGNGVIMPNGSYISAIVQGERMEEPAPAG
Hsc70 ATP site: small molecules displacing fluorescent ligand from Hsc70 – biochemical, fluorescence polarization, primary screen (AID 568). Hsc70 fluorescence polarization, probe displacement; higher % means a stronger effect; strong numbers were not always called active. one-dose displacement, % at 20 µM; IC50 in µM for titrated hits. 83,000 tested, under 10 active;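 active = displacement above 50% without optical interference and an IC50 on retest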;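 note: ATPase domain with a fluorescein-tagged ATP probe; 0% = vehicle and 100% = excess ADP; read after one hour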
* = called active by the depositor; i = inactive; · = not tested or not shown; & = joins results of further samples. Some of the compounds tested (hit frequency here may not be typical).

molecule | Hsc70 ATP site | MT1-MMP promoter | WNV protease inh
CN(C)c1ccc(NC(=O)c2cn(-c3ccccc3)nc2-c2cccs2)cc1 | 0.7% | i | ·
O=C(OCC#CCSc1nnc(-c2ccccc2)o1)c1ccco1 | -3.1% | i | 1.4
O=C(NCc1nc2ccccc2[nH]1)c1ccco1 | 1.7% | i | 0.45
O=[n+]1c2c(n([O-])c3c1CCCC3)CCCCC2 | 1.2% | i | -0.36
CN(C)CCCN(C(=O)c1cccs1)c1nc(-c2ccccc2)cs1 | -3.2% | i | -0.59
CCCn1c(SCC(=O)NCCc2ccc(OC)c(OC)c2)nc2c1c(=O)n(C)c(=O)n2C | -1.0% | i | -0.99
O=C(c1nn2cccnc2c1Cl)N1CCN(c2ccccc2)CC1 | 7.2% | i | -0.03
O=C(Cc1cccs1)Nc1nncs1 | -0.2% | i | -1
CCOC(=O)c1ccc(NCc2nc3ccccc3n2C)cc1 | -1.4% | i | ·
CCN1C(c2ccc(F)cc2)=CS/C1=C(\C#N)c1nnc2n1-c1ccccc1SC2 | -5.3% | i | -0.26
c1ccc(-c2noc(-c3ccccc3-c3ccccc3)n2)cc1 | 1.6% | i | ·
CCn1c(NC2CCCCC2)nc2ccccc21 | -1.5% | i | 0.42
CC(C)c1nc2oc3c(N4CCN(C)CC4)ncnc3c2c2c1CCC2 | -54% | i | -0.83
COc1cccc(-n2nnc3c(=O)n(Cc4cccc(F)c4)cnc32)c1 | -2.1% | i | 0.98
Nn1c(Cc2cccc3ccccc23)nnc1SC1CCOC1=O (stereo unspecified) | 2.4% | i | -0.61
COc1ccc(CNC(=O)CN2C(=O)C(C)N(c3ccc(C)cc3)C2=O)cc1 (stereo unspecified) | -2.2% | i | ·
COC(=O)c1[nH]c2ccc(C)cc2c1NC(=O)CN1CCN(C(=O)c2ccccc2)CC1 | 2.1% | i | 0.48
c1ccc(Cc2nnc3sc(C4COc5ccccc5O4)nn23)cc1 (stereo unspecified) | -1.0% | i | -0.86
COc1ccc(C(CC(=O)NCCCN2CCOCC2)NS(=O)(=O)c2ccc(C)cc2)cc1 (stereo unspecified) | 4.7% | i | 0.77
Cc1ccccc1N1CCN(S(=O)(=O)c2ccccc2)CC1 | -2.2% | i | ·
CCn1nc(CC(=O)Nc2ccc(-n3cnnn3)c(OC)c2)c2ccccc2c1=O | 5.4% | i | ·
O=C(CN1CCOCC1)Nc1cccc(Br)c1 | -0.3% | i | 1.6
O=C(CSC1=NCCN1)C1COc2ccccc2O1 (stereo unspecified) | 1.2% | i | 0.05
O=c1c2[nH]c3cccc(Cl)c3c2ncn1CCN1CCCCC1 | 5.9% | i | -0.55
CCOc1ccc(C(=O)SC2=NCCS2)cc1 | 5.1% | i | ·
Cc1ccccc1C1NC(=O)Cc2ccccc21 (stereo unspecified) | -2.6% | i | ·
CCCCc1nnc(NC(=O)CCSc2ccccc2)s1 | -5.2% | i | ·
Cc1cccc(OC(C)C(=O)N(Cc2cccs2)C2CCS(=O)(=O)C2)c1C (stereo unspecified) | -8.3% | i | 1.6
COc1ccc(Nc2nc(C(=O)NCCCN3CCOCC3)cs2)cc1 | 0.1% | i | 0.65
CCc1nnc(NC(=O)C2CCN(C(=O)NC3CCCCC3)CC2)s1 | 1.8% | i | 0.98

Quoted from the listing.
Hsc70 ATP site, Cc1ccccc1C1NC(=O)Cc2ccccc21 (stereo unspecified) = -2.6%
Hsc70 ATP site, CCOC(=O)c1ccc(NCc2nc3ccccc3n2C)cc1 = -1.4%
WNV protease inh, O=C(NCc1nc2ccccc2[nH]1)c1ccco1 = 0.45

Returning to the listing; the four compounds before the break are reprinted first.
molecule | Hsc70 ATP site | MT1-MMP promoter | WNV protease inh
CCCCc1nnc(NC(=O)CCSc2ccccc2)s1 | -5.2% | i | ·
Cc1cccc(OC(C)C(=O)N(Cc2cccs2)C2CCS(=O)(=O)C2)c1C (stereo unspecified) | -8.3% | i | 1.6
COc1ccc(Nc2nc(C(=O)NCCCN3CCOCC3)cs2)cc1 | 0.1% | i | 0.65
CCc1nnc(NC(=O)C2CCN(C(=O)NC3CCCCC3)CC2)s1 | 1.8% | i | 0.98
O=C(c1ccco1)N1CCN(C(c2ccc(F)cc2)c2nnnn2CC2CCCO2)CC1 (stereo unspecified) | -5.3% | i | -1.2
O=C(CCC(=O)N1CCN(S(=O)(=O)c2ccccc2)CC1)c1cccs1 | -0.1% | i | -0.54
Nc1nc(-c2ccc3c(c2)CCCC3)cs1 | 2.4% | i | 0.68
O=C(NC1CCCCC1)c1cccnc1C(=O)O | 5.7% | i | 2.4
Cc1nn(Cc2ccccc2Cl)c(C)c1NC(=O)c1nc2ncccn2n1 | 1.5% | i | ·
COc1ccccc1N1CCN(C(=O)CCCn2c(=O)[nH]c3ccsc3c2=O)CC1 | 1.1% | i | 0.41
CCOC(=O)N1CCC(N(CCOC)C(=O)Nc2ccc(C)c(C)c2)CC1 | 3.7% | i | ·
COc1ccc(S(=O)(=O)N(CC(=O)N2CCOCC2)c2cc(Cl)ccc2OC)cc1OC | 4.3% | i | 2
CCC(C)Sc1nc(O)c(Cc2ccccc2)c(=O)[nH]1 (stereo unspecified) | -0.3% | i | ·
O=C(CC(c1ccccc1)c1cc(Br)ccc1O)NCCN1CCOCC1 (stereo unspecified) | -5.4% | i | -1.3
CCN(CC)c1ccc(C2C3CCCCC3(O)CCN2CC(=O)Nc2ccccc2)cc1 (stereo unspecified) | 3.5% | i | ·
N#Cc1cc2c(nc1SCC(=O)N1CCCCC1)CCCC2 | 3.2% | i | 0.26
CCOC(=O)C1=C(C)Nc2nc(SC)nn2C1c1ccc(C(=O)OC)cc1 (stereo unspecified) | -12% | i | -0.26
CCCOC(=O)c1ccc(NC(=O)C2C3C=CC(O3)C2C(=O)O)cc1 (stereo unspecified) | -6.7% | i | -0.52
CC1CN(c2cc(=O)n(Cc3ccc(F)cc3)c(=O)[nH]2)CC(C)O1 (stereo unspecified) | 8.9% | i | -0.29
CCn1cc(C(=O)NC2CCCCC2)c(=O)c2ccc(C)nc21 | 3.3% | i | ·
O=[N+]([O-])c1ccc(Cl)cc1Sc1cccc2cccnc12 | -0.6% | i | ·
Cc1nc2nc[nH]n2c(=O)c1NC(=O)CC12CC3CC(CC(C3)C1)C2 | -2.2%&1.3% | i | -0.7
CC1CN(c2cc(=O)n(-c3ccccc3)c(=O)[nH]2)CC(C)O1 (stereo unspecified) | 4.1% | i | -1.5
CN(C)c1cc[n+](Cc2ccccc2)cc1 | 0.6% | i | -0.62
Cc1nc2nc3c(c(=O)n2[nH]1)CCC3 | -5.4% | i | 0.77
COc1ccc(C2C(C(=O)Nc3ccccc3)=C(C)N=C3SCC(=O)N32)cc1 (stereo unspecified) | -0.2% | i | ·
COC(=O)CSc1nnc(-c2ccc(OC)cc2OC)o1 | 4.9% | i | 0.36
CC1Cc2nc(SCC(=O)Nc3ccc4c(c3)OCCO4)n(C)c(=O)c2S1 (stereo unspecified) | -4.0% | i | -0.54
Cc1ccn2c(-c3csc(NCc4ccccc4)n3)c(C)nc2c1 | 5.6% | i | ·
O=C(NC1CCCCC1)C1CC(O)CN1C(=O)OCc1ccccc1 (stereo unspecified) | -4.6% | i | -0.31
O=C(NC(c1ccccc1)c1ccccc1)C1CCCN(S(=O)(=O)c2cnc[nH]2)C1 (stereo unspecified) | -1.9% | i | -0.43
CCC(CC)c1nnc(NC(=O)c2c(C)nn(Cc3ccccc3Cl)c2C)s1 | 0.6% | i | ·
Cc1cc(C)cc(CC2CC(=O)N(c3ccc4c(c3)OCCO4)C2=O)c1 (stereo unspecified) | -4.1% | i | -0.18
Cc1ccccc1S(=O)(=O)Cc1ccc(C(=O)N2CCN(C3CCCCC3)CC2)o1 | 2.0% | i | -0.47
Cc1cc(C)c2c(=O)n(CC(=O)NCCCN3CCOCC3)sc2n1 | 1.0% | i | 0.09
O=C(Nc1cccc(Cl)c1)OCc1cnc(Cl)s1 | -0.4% | i | ·
CCOC(=O)c1[nH]c(C)c(/C(O)=C2\C(=O)C(=O)N(CCN(C)C)C2c2cccc(OC)c2OC)c1C (stereo unspecified) | 0.8% | i | 0.01
c1cncc(-c2nnc(C3CCCCC3)o2)c1 | 2.0% | i | 0.3
Cc1nc(CSc2nnc3scc(-c4ccc(Cl)cc4)n23)cs1 | 9.0% | i | 1.3
O=C(CCN1c2ccccc2Sc2ccccc21)OCc1nnc(-c2ccccc2)o1 | 1.0% | i | -0.54
CC1CC(C)CN(C2CCN(Cc3cccnc3)CC2)C1 (stereo unspecified) | 2.1% | i | ·
CC(C)(Oc1ccc(Cl)cc1)C(=O)NCc1ccco1 | -6.7% | i | 1.5
Clc1ccccc1-c1nnc2sc(-c3ccco3)nn12 | -3.6% | i | 1.5
CCN(CC)CC(O)Cn1c2ccccc2c2ccccc21 (stereo unspecified) | -0.2% | i | -1.1
O=c1o[nH]c(-c2ccccc2)c1C1=NCCCCC1 | -3.6% | i | 0.93
COCc1cc(C)nc2sc3c(=O)n(Cc4ccco4)nnc3c12 | 0.4% | i | -0.16
COc1ccc(NC(=O)Nc2nnc(N3CCCCC3C)s2)cc1OC (stereo unspecified) | 5.8% | i | -0.95
CC1(C)Cc2c(c(N3CCOCC3)nc3sc4c(=O)[nH]cnc4c23)CS1 | -5.0% | i | -1.5
CCn1cc(C(=O)NCCN(C)CCc2ccccc2)c(=O)c2cc(S(=O)(=O)N(C)C)ccc21 | 1.8% | i | -0.52
CCC(=O)Nc1ccc(NC(=O)C23CC4CC(CC(C4)C2)C3)cn1 | -6.1% | i | 1.3
O=S(=O)(c1ccccc1)c1nc(-c2ccccc2)oc1NCc1cccnc1 | 3.8% | i | 0.46
Cc1ccccc1C1=NC(c2ccc(F)cc2F)ON1 (stereo unspecified) | 1.8% | i | 1.2
O=C(NCc1cccnc1)c1ccc(CS(=O)(=O)c2ccc(Br)cc2)o1 | -0.1% | i | -0.48
C=CCNC(=O)COc1ccc(Br)cc1Cl | -0.6% | i | -0.69
COc1ccc(-n2cnc3ccccc32)cc1 | -2.2% | i | ·
O=C1C(NS(=O)(=O)c2cccs2)=C(N2CCN(c3cccc(C(F)(F)F)c3)CC2)C(=O)c2ccccc21 | -1.2% | i | ·
COc1cccc(C(=O)Nc2ccc(-c3nc4ccccc4o3)c(O)c2)c1 | -18% | i | -0.43
O=C(c1cc2ccccc2oc1=O)N(Cc1ccco1)CC1CCCO1 (stereo unspecified) | -0.2% | i | -0.14
O=C(CSCc1ccc(Cl)cc1)NCC1CCCO1 (stereo unspecified) | -1.1% | i | -0.59
Nc1ccc(-c2nnc(-c3ccc(-c4ccccc4)cc3)o2)cc1 | -5.7% | i | -1.3
COc1ccc(NC(=O)C2CCN(C(=O)c3ccc(OC)cc3)CC2)cc1 | -8.2% | i | ·
Cc1cc(NC(=O)c2ccc3c(c2)OCO3)ccc1NC(=O)c1ccco1 | 3.3% | i | ·
COC(=O)c1ccccc1NC(=O)Cn1c(CCC(=O)O)ccc1-c1cccs1 | 2.1% | i | ·
Cn1c(=O)cc(OCCCC(=O)NC2CCCC2)c2ccccc21 | 1.9% | i | 0.01

Following part:
molecule | Hsc70 ATP site | MT1-MMP promoter | WNV protease inh
CC1CN(Cc2nc3c(c(=O)n(C)c(=O)n3C)n2CCN2CCOCC2)CC(C)O1 (stereo unspecified) | 0.1% | i | 1.3
O=C1c2cccnc2C(=O)N1C1CCCCC1 | -0.7% | i | 1.1
Cc1ccc(N2C(=O)CSC2c2ccc3c(c2)OCO3)cc1 (stereo unspecified) | 4.5% | i | ·
O=C(CC(c1ccco1)C1CCCCC1=O)c1ccccc1 (stereo unspecified) | 4.5% | i | ·
CS(=O)(=O)N1CCN(C(=O)C2c3ccccc3Oc3ccccc32)CC1 | 1.7% | i | -0.51
CC1=C(C(=O)OC(C)C)C(c2ccccn2)n2ncnc2N1 (stereo unspecified) | 1.2% | i | 0.12
CCOC(=O)c1ccc(NC(=S)N2CCN(S(C)(=O)=O)CC2)cc1 | 0.5% | i | ·
Cc1ccc(S(=O)(=O)Cn2nnnc2C(c2ccccc2)N2CCN(c3ncccn3)CC2)cc1 (stereo unspecified) | 0.6% | i | -0.15
Cc1sc2nc3n(c(=O)c2c1C)CCCS3 | 2.8% | i | 1.1
COc1ccc(S(=O)(=O)N(C)CC(=O)N2CCC(C(N)=O)CC2)cc1Cl | -2.3% | i | -0.27
O=C(CCN1CCc2ccccc2C1)Nc1ccc2c(c1)OCO2 | 4.5% | i | -0.76
CCOC(=O)N1CCN(Cc2c(F)cccc2Cl)CC1 | 3.7% | i | -0.46
C=C(C)C1CC=C(C)/C(=N/NC(=O)COc2ccc(C)cc2)C1 (stereo unspecified) | -2.5% | i | ·
CCOC(=O)Nc1ccc(C)cc1Br | 0.1% | i | -0.69
CC1=CS/C(=C(/C#N)C(=O)N2CCOCC2)N1c1ccccc1 | 1.2% | i | -0.3
Cc1ccc(C(C(=O)NC2CCCC2)N(C(=O)CCC(=O)Nc2cc(C)on2)c2ccccc2)cc1 (stereo unspecified) | 4.4% | i | ·
Cc1ccc(C)c(NS(=O)(=O)c2ccc(OCC(=O)N3CCCC3)cc2)c1 | -0.7% | i | ·
